NPYLR7 ag: agonists of mosquito NPYLR7 receptor, primary screen, cell-based, Aedes aegypti, calcium fluorescence, mosquito biting behavior; Aedes aegypti neuropeptide Y-like receptor 7 (NPYLR7); HEK293T NPYLR7/Galpha15, GCaMP6s calcium fluorescence; activation, % at 10 µM; 0.15% of 270,000 active; AID 1259423, 2018; in the data active means activation above about 40%;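 further: 0% = vehicle and 100% = reference agonist at the receptor; some compounds past the cut are filed as inactive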
NPYLR7 ag max-min: recorded beside NPYLR7 ag, whose call it bears; activation, %; measured here: Max-Min RFU normalised activation; some inactives read as strong as hits;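 span of the calcium signal over five minutes; 0% = vehicle and 100% = native peptide agonist; compound fluorescence can raise it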
* = called active by the depositor. These rows are one share of the data; rates above refer to the full screens.

Second line of a record: NPYLR7 ag, NPYLR7 ag max-min
- O=[N+]([O-])c1ccccc1CN1CCC(N(c2ccc(F)cc2)S(=O)(=O)c2ccccc2)CC1
 : 7, 6
- CSc1ccc(CN2CCC2(C)C(=O)NCc2cccnc2)cc1 (configuration not stated)
 : 0, -2
- COCCC1(CNS(=O)(=O)N(C)C)CCCC1
 : -11, -13
- O=C(NN=C1CCCC1)C1CCN(S(=O)(=O)c2cccs2)CC1
 : -1, -9
- O=C1C2C3C=CC(C3)C2C(=O)N1Cc1cccs1 (configuration not stated)
 : -14, -18
- O=c1cc(-c2ccncc2)nc(-c2ccc(CN3C[C@H]4CC[C@H]3C4)cc2)[nH]1
 : 7, 4
- COc1ccc(-c2nnc3ccc(OCCNC(=O)Cc4ccccc4)nn23)cc1OC
 : -8, -9
- COc1cc2c(cc1OC)C(=O)Cc1ccc3c(c1CN(C)CC2)OCO3
 : 3, 2
- CCOC(=O)Nc1cc(-c2ccc(C)c(NS(C)(=O)=O)c2)nn2c(C)nnc12
 : -2, -3
- c1ccc(CN2CCCC3(CCCN(Cc4cc5n(n4)CCNC5)C3)C2)cc1 (configuration not stated)
 : 17, 14
- CCc1ccc(CN(C)c2nc(-c3ccncc3)nc3c2CNC3)nc1
 : 11, 5
- CN(C)c1ccc(C(=O)NCCCOCC2CCOC2)cc1 (configuration not stated)
 : -7, -7
- Cc1cc(Cl)cc(C)c1OCC(=O)OCC(=O)Nc1ccc2c(c1)OCCO2
 : -1, -2
- Cc1ccc(-c2nc(C=Nc3ccc(I)cc3C)c(O)o2)cc1
 : 0, -2
- O=C(Nc1cccc(-c2cccc(Cl)c2)c1)C1CCN(C(=O)c2ccncc2)CC1
 : 15, 9
- Cc1ccc(C(C)(C)CNC(=O)NC(C)c2nncn2C)cc1 (configuration not stated)
 : 10, 5
- CCc1cccc2c(C(CC(=O)NCc3ccc(F)cc3)c3cccc(C(F)(F)F)c3)c[nH]c12 (configuration not stated)
 : 3, 12
- CCC(C)c1ccc(C(NS(=O)(=O)c2ccc(C(N)=O)cc2)C(C)C)cc1 (configuration not stated)
 : 0, 1
- COc1ccc(Oc2cc(N3CCN(C(=O)c4cccc([N+](=O)[O-])c4)C(C)C3)ncn2)cc1 (configuration not stated)
 : 6, 3
- COc1ccc(-c2nc(N(CCC(=O)N3CCN(c4ccccc4F)CC3)CCc3ccccc3)c3ccccc3n2)cc1
 : 13, 18
- Nc1cc(S(=O)(=O)C(F)F)ccc1Cl
 : 3, 2
- Cc1ccc(C=C2SC(=S)N(CCCCC(=O)O)C2=O)o1
 : 9, 8
- CN(Cc1cnc(N2CCOCC2)s1)C1CCCc2ccccc21 (configuration not stated)
 : -1, -9
- COCc1cc(C)nc(OCC(=O)N/N=C\c2ccc(-c3ccc(Cl)c([N+](=O)[O-])c3)o2)c1C#N
 : 0, 9
- COCCCNc1nc2ccccn2c(=O)c1C=C1SC(=S)N(Cc2ccco2)C1=O
 : 4, 14
- O=S(=O)(NC1CCCN(c2ncccn2)C1)c1ccc(Cl)cc1F (configuration not stated)
 : 17, 13
- CC(SCc1cn2cc(Cl)ccc2n1)C(=O)O (configuration not stated)
 : 10, 4
- Cc1cccc(C)c1Nc1c(CC(C)C)nc2c(Br)cc(Br)cn12
 : 17, 30
- O=C(COCc1ccccc1)NC1CC2CCC(C1)N2Cc1ccoc1 (configuration not stated)
 : -6, 11
- Cc1cc(C)n(C2CN(C(=O)C3(N(C)C)Cc4ccccc4C3)C2)n1
 : 4, 0
- CC#CCN1CCc2nc3ccccc3c(C(=O)N3CCCC(CO)C3)c2C1 (configuration not stated)
 : -1, 4
- COc1cccc(-c2cnc(-c3ccc(CNC(=O)C(C)(C)OC(C)=O)cc3)[nH]2)c1
 : 3, 0
- COc1ccc(OC)c(Cc2nnc(CCC(=O)NC(C)Cc3cccs3)o2)c1 (configuration not stated)
 : 3, 1
- CC1CCC2(CC1)NC(=O)N(NC(=O)CSc1nnc3n1CCCCC3)C2=O (configuration not stated)
 : 4, 4
- CCN(CC)C(=O)c1cc(NC(=O)Nc2ccc(C)c(C)c2)ccc1N1CCCC1
 : -8, -5
- COCCN(Cc1c(C)nn(-c2ccccc2)c1Oc1cccc(C)c1)CC(O)Cc1ccccc1 (configuration not stated)
 : 14, 13
- C[C@@H](NCCc1ccc(O)cc1)[C@@H](O)c1ccc(O)cc1
 : 1, 38
- COc1ccc(C(=O)Nc2nc(-c3ccc(F)cc3)cs2)c(OC)c1
 : -1, -4
- O=C(CCc1nc2ccccc2s1)NCCCc1nc2ccccc2s1
 : 22, 16
- COc1ccccc1SC(C)C(=O)NC(N)=O (configuration not stated)
 : 3, 6
- CCOc1cc(C(=O)NCCc2csc3nc(-c4ccc(C)cc4)nn23)cc(OCC)c1OCC
 : -2, -2
- CC1(C)CC(CC(=O)O)CC(C)(C)N1
 : -2, -4
- COc1ccc(OCc2coc(-c3ccccc3)n2)c([N+](=O)[O-])c1
 : -7, 15
- Cc1cc(C)c(C#N)c(SCCSc2nc(C)cc(C)c2C#N)n1
 : -2, -5
- O=C(CN1CCC(NC(=O)C2CC2c2ccccc2Cl)CC1)Nc1ccccc1 (configuration not stated)
 : 0, -1
- C=C(C)COc1ccccc1C(=O)N1CCc2[nH]nc(C(C)C)c2C1
 : -3, -4
- O=C(NC(c1cccnc1)C(F)(F)F)c1cn(CCN2CCOCC2)nn1 (configuration not stated)
 : 2, -1
- Cc1nn(Cc2ccc(C(=O)N/N=C/c3c(Cl)cccc3Cl)o2)c(C)c1Cl
 : 4, 0
- O=C(NCCC(O)C(F)(F)F)C1CC2CCC1C2 (configuration not stated)
 : 1, 1
- O=C(c1cccc2ccccc12)C1CCCN(C(=O)c2ccco2)C1 (configuration not stated)
 : 1, -1

As entered above:
Result for `COc1ccc(OCc2coc(-c3ccccc3)n2)c([N+](=O)[O-])c1` under NPYLR7 ag: -7
Result for `C=C(C)COc1ccccc1C(=O)N1CCc2[nH]nc(C(C)C)c2C1` under NPYLR7 ag max-min: -4

Further results
Second line of a record: NPYLR7 ag, NPYLR7 ag max-min
- Cc1nccn1CCCNc1ncc(Br)cn1
 : -4, -5
- COc1ccc(NC2CCCN(C(=O)c3ccc4nc(C)c(C)nc4c3)C2)cc1OC (configuration not stated)
 : 7, 5
- COc1ccc(C2C(=C(O)c3ccc(Cl)cc3)C(=O)C(=O)N2CCN2CCOCC2)cc1 (configuration not stated)
 : -1, 4
- CCCN(C)C(=O)c1ccnc(Br)c1
 : -2, -6
- Cc1ccc(NC(=O)Cn2cnc3c(nnn3-c3cc(C)cc(C)c3)c2=O)cc1
 : -3, -7
- COCCN(Cc1csc(COc2ccccc2)n1)C(=O)c1ccccc1C
 : -1, 8
- CCOCCCN(CC(=O)N(CCc1ccc(OC)c(OC)c1)Cc1cccs1)C(=O)c1ccc(-c2ccccc2)cc1
 : 20, 29
- COc1ccc(CCNC(=O)N2CCc3nc(Nc4cc(OC)c(OC)c(OC)c4)ncc3C2)cc1OC
 : -7, -11
- COc1cc(C(C)=O)ccc1OCC(O)Cn1nc(C)c(C)c1C (configuration not stated)
 : 2, 2
- Cc1n[nH]c(C)c1C(C)Nc1nc(C2CCCC2)nc2c1cnn2C (configuration not stated)
 : 2, 3

A different layout for some results above.
mol | NPYLR7 ag | NPYLR7 ag max-min
COc1ccc(OCc2coc(-c3ccccc3)n2)c([N+](=O)[O-])c1 | -7 | 15
Cc1cc(C)c(C#N)c(SCCSc2nc(C)cc(C)c2C#N)n1 | -2 | -5
O=C(CN1CCC(NC(=O)C2CC2c2ccccc2Cl)CC1)Nc1ccccc1 (configuration not stated) | 0 | -1
C=C(C)COc1ccccc1C(=O)N1CCc2[nH]nc(C(C)C)c2C1 | -3 | -4
O=C(NC(c1cccnc1)C(F)(F)F)c1cn(CCN2CCOCC2)nn1 (configuration not stated) | 2 | -1
Cc1nn(Cc2ccc(C(=O)N/N=C/c3c(Cl)cccc3Cl)o2)c(C)c1Cl | 4 | 0
O=C(NCCC(O)C(F)(F)F)C1CC2CCC1C2 (configuration not stated) | 1 | 1
O=C(c1cccc2ccccc12)C1CCCN(C(=O)c2ccco2)C1 (configuration not stated) | 1 | -1
Cc1nccn1CCCNc1ncc(Br)cn1 | -4 | -5
COc1ccc(NC2CCCN(C(=O)c3ccc4nc(C)c(C)nc4c3)C2)cc1OC (configuration not stated) | 7 | 5
COc1ccc(C2C(=C(O)c3ccc(Cl)cc3)C(=O)C(=O)N2CCN2CCOCC2)cc1 (configuration not stated) | -1 | 4
CCCN(C)C(=O)c1ccnc(Br)c1 | -2 | -6
Cc1ccc(NC(=O)Cn2cnc3c(nnn3-c3cc(C)cc(C)c3)c2=O)cc1 | -3 | -7
COCCN(Cc1csc(COc2ccccc2)n1)C(=O)c1ccccc1C | -1 | 8
CCOCCCN(CC(=O)N(CCc1ccc(OC)c(OC)c1)Cc1cccs1)C(=O)c1ccc(-c2ccccc2)cc1 | 20 | 29
COc1ccc(CCNC(=O)N2CCc3nc(Nc4cc(OC)c(OC)c(OC)c4)ncc3C2)cc1OC | -7 | -11
COc1cc(C(C)=O)ccc1OCC(O)Cn1nc(C)c(C)c1C (configuration not stated) | 2 | 2
Cc1n[nH]c(C)c1C(C)Nc1nc(C2CCCC2)nc2c1cnn2C (configuration not stated) | 2 | 3

(cont.)
Second line of a record: NPYLR7 ag, NPYLR7 ag max-min
- C=CCn1c(SCC(=O)NC2CCCCC2)nc2sc(C)c(C)c2c1=O
 : 1, 0
- CCn1cc(C(=O)NCCc2ccccc2OC)c2nn(-c3ccccc3)c(=O)c-2c1
 : -3, -3
- Cc1ccccc1-n1ncc(C(=O)OCC(=O)N2CCCCC2)c1N
 : 0, -5
- CCOC(=O)c1cc(-c2cccc(OC)c2)n(-c2ccc(C(=O)NC(C)CCc3ccccc3)cc2)n1 (configuration not stated)
 : 7, 4
- Cc1ccccc1N1CCN(C2CCCN(C(=O)CCc3ccccc3)C2)CC1 (configuration not stated)
 : -1, 3
- Cc1noc(C)c1CC(=O)N1CCCC(Nc2ccc3c(c2)OCCO3)C1 (configuration not stated)
 : 2, -1
- C(=N/Nc1ccc2nncn2n1)/c1ccccc1
 : -2, 7
- COCCN1CCC(NC(=O)CCc2ccc(F)cc2)C1 (configuration not stated)
 : 7, 3
- Cc1ccc(NC(=O)Nc2c(-c3cc(C)cc(C)c3)nc3cc(C)ccn23)cc1
 : -8, -6
- O=C(C=Cc1cccs1)NC12CC3CC(CC(C3)C1)C2
 : -6, -8
- CCOC(=O)c1c(C)nn(-c2ccc(C(=O)NCc3ccc(OC)cc3)cc2)c1C
 : 0, -4
- COc1ccc(-c2cc(C(F)(F)F)n3ncc(C(=O)Nc4cccc(O)c4)c3n2)cc1
 : 8, 10
- CCn1c(C)cc(O)c(C(c2ccc(Cl)cc2)N2CCN(c3ccc(F)cc3)CC2)c1=O (configuration not stated)
 : 2, -1
- CN1CCOC(C(=O)N(CCC(F)(F)F)C2CCCCC2)C1 (configuration not stated)
 : 1, 2
- Cc1nc(C)c(CN2CCCC(C(=O)Nc3cccc(-n4cnnn4)c3)C2)nc1C (configuration not stated)
 : 3, 2
- COc1ccc(CCCNC(=O)c2ccc(N3CC[C@H](O)C3)nc2)cc1
 : 5, 3
- Cc1cc(C)cc(OC(C)C(=O)N2CCN(c3ccc4nnc(C)n4n3)CC2)c1 (configuration not stated)
 : 2, 7
- CCCN1C(=O)C(=Cc2c(N3CCC(C)CC3)nc3ccc(C)cn3c2=O)SC1=S
 : 5, 25
- CCCCOC(=O)c1ccc(O)cc1
 : 0, -2
- CCCCCCCCN=C(NC(=O)c1cccs1)OCCOC
 : 7, 9
- CC(C)c1cccc(-c2ccc3c(c2)COC2(CCN(C(=O)Cc4ccc(F)cc4F)CC2)O3)c1
 : -9, -19
- CC(C)CC(C)NC(=O)c1cccnc1NC(C)C (configuration not stated)
 : -1, -2
- O=C(CN1CN(c2ccccc2)C2(CCN(C(=O)c3ccc([N+](=O)[O-])cc3)CC2)C1=O)NCc1ccco1
 : -8, 3
- CN1CCN(C(C)(C)CNC(=S)Nc2ccc(Cl)cc2Cl)CC1
 : 1, -2
- O=C(O)[C@H]1C[C@H](C(=O)NCc2ccccn2)CN(Cc2ccc(F)cc2F)C1
 : 27, 14
- COc1ccc(-c2nc(C(N)=O)c3[nH]c(=O)n(-c4ccc5c(c4)OCO5)c3n2)cc1
 : -1, -5
- CCc1nc(C)c(C(=O)N2CCOC(Cc3ccc(F)cc3)C2)o1 (configuration not stated)
 : -6, -8
- Cc1cc(=O)n(C)c2nc(-c3cccs3)cc(C(F)(F)F)c12
 : 6, 3
- Cc1cc(C)c(C#N)c(SCC(=O)N2CCN(C(=O)c3ccco3)CC2)n1
 : 14, 4
- Oc1c(N=Nc2cccc(Br)c2)sc2ccccc12
 : 4, -4
- O=C1NC(=Nc2ccccc2)S/C1=C/c1ccccc1O
 : -2, -9
- COCc1cc(N2CCN(c3ccc(OC)cc3)CC2)nc(SCc2cccc(C(=O)NC3CC3)c2)n1
 : -1, 0
- O=C(O)C1CCCN(C(=O)c2ccc(COc3ccc(F)cc3)o2)C1 (configuration not stated)
 : 1, -1
- O=C(CCc1ncc(-c2ccc(F)cc2F)o1)N1CCN(S(=O)(=O)c2ccc(F)cc2)CC1
 : -8, -10
- O=c1c2cnn(C3CCS(=O)(=O)C3)c2ncn1Cc1ccccc1 (configuration not stated)
 : 9, 0
- Cc1cc(C)c(NC(=O)CN2CC(C(=O)N3CCCCC3)Oc3ccccc32)c(C)c1 (configuration not stated)
 : 5, 2
- NC1CCN(S(=O)(=O)c2ccc(I)cc2)CC1
 : 12, 9
- O=C(C1CCN(c2nccc(CCC(F)(F)F)n2)CC1)N1CCOCC1
 : -5, -8
- COc1ccc2nc(NC(=O)/C=C/c3cccc4ccccc34)sc2c1
 : -8, -5
- COc1ccc2c(c1)CCc1c(-c3ccc(C(=O)NCc4ccc(F)cc4F)cc3)n[nH]c1-2
 : 26, 16
